From PubChem
DUX4 txn inh: inhibitors of DUX4-driven ZSCAN4 reporter expression, primary screen, 293T cells, Gaussia and Italica luciferase; 0.8% of 37,000 active; activity change, negative = inhibition, % (no concentration beside the values); 293T-iDUX4 ZSCAN4-Gaussia luciferase reporter, 24 h; active compounds read low;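 active = -10% or lower and over 25 points stronger than a control reporter; inconclusive = -10% or lower with a smaller gap; inactive = above -10%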;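 also: 0% = median of neutral control wells and -100% = median of positive control wells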
DUX4 txn inh difference: recorded beside DUX4 txn inh, whose call it bears; Gaussia minus Italica difference, %; measured here: selective DUX4 reporter inhibition;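 worked out from the two reporters; negative = selective loss of the DUX4 reporter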
DUX4 txn inh control: recorded beside DUX4 txn inh, whose call it bears; activity change, negative = inhibition, %; measured here: Italica tet-on control reporter;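 0 = neutral control and -100 = positive control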
Numbers without * were called inactive; ? = inconclusive; / = not tested or not shown; & = joins results of further samples. Only part of the results is shown; count on the stated rates, not on these rows.

Compound	DUX4 txn inh	DUX4 txn inh difference	DUX4 txn inh control
COc1ccc(C#Cc2ccc3c(c2)[C@@H]2[C@@H](CCN2S(=O)(=O)c2ccccc2C)[C@H](CO)N3C)cc1	2	5	-2.5
COc1ccc(C(=O)Nc2ccc3c(c2)C(=O)N(C)[C@@H]2CC[C@H](CC(=O)NCC4CC4)O[C@H]2CO3)cc1	-3	-3	0.4
CS(=O)(=O)N1[C@H](C#N)[C@@H](c2ccccc2-c2ccc(F)cc2)[C@@H]1CO	6	6	0.6
O=C(C[C@@H]1C[C@H]2c3cc(NC(=O)c4ccc5c(c4)OCO5)ccc3O[C@H]2[C@H](CO)O1)NCc1cccnc1	5	2	2.7
COCC(=O)N1[C@@H](C#N)[C@@H](c2ccccc2C2=CCCCC2)[C@@H]1CO	5	0	5.1
C[C@H]1CN([C@@H](C)CO)C(=O)c2cccc(NC(=O)c3cnccn3)c2O[C@H]1CN(C)C(=O)NC1CCCCC1	2	-2	3.8
COc1ccc(S(=O)(=O)N(C)C[C@@H]2Oc3c(cccc3N(C)C)C(=O)N([C@H](C)CO)C[C@@H]2C)cc1	-2	2	-3.8
COCC(=O)Nc1ccc2c(c1)[C@@H]1C[C@H](CC(=O)NCCc3ccccc3)O[C@@H](CO)[C@@H]1O2	3	-1	3.9
CO[C@@H]1CN(C)C(=O)c2cc(NC(C)=O)ccc2OC[C@H](C)N(C(=O)C2CC2)C[C@H]1C	-6	-10	3.4
Cc1noc(C)c1S(=O)(=O)N1[C@@H]2CNC[C@H]1C2c1ccc(-c2ccccc2)cc1 (stereo not given in full)	-4	-6	2.6
COc1ccccc1CN(C)C[C@@H]1OCc2ccccc2-c2c(n(C)c3ccccc23)C(=O)N([C@H](C)CO)C[C@@H]1C	?	/	/
O=C(c1ccccc1F)N1CC[C@@H]2[C@H]1c1cc(C#Cc3ccccc3F)ccc1N[C@@H]2CO	?	/	/
CNC(=O)C[C@H]1CC[C@@H]2[C@@H](COc3ccc(NC(=O)Nc4ccccc4F)cc3C(=O)N2C)O1	1	-3	4.3
O=C(Nc1ccc(F)cc1)N1CC(=O)N2[C@H](C1)[C@@H](c1ccc(C#Cc3ccccc3)cc1)[C@@H]2CO	?	/	/
C[C@@H]1CN([C@H](C)CO)C(=O)c2ccccc2-c2ccccc2CO[C@@H]1CN(C)Cc1cccc(O)c1	9	1	8.7
CCS(=O)(=O)N1CC2(CN(C)[C@H](CO)c3c2c2ccc(OC)cc2n3C)C1	23	17	6.1
CC=Cc1ccc2n(c1=O)C[C@H]1[C@H](CO)[C@@H](C(=O)NCC)[C@@H]2N1C(C)=O (mixture of isomers)	-3	-2	-0.7
O=C(CC1CC1)N1CC[C@@H]2[C@H]1c1cc(-c3ccccc3)ccc1N[C@@H]2CO	?	/	/
Cn1cnc(S(=O)(=O)N2CC[C@@H]3[C@H]2c2cc(C#Cc4cccc(F)c4)ccc2N[C@@H]3CO)c1	0	9	-9.0
COc1ccccc1NC(=O)N(C)C[C@H]1OCc2ccccc2-c2ccccc2C(=O)N([C@H](C)CO)C[C@@H]1C	10	13	-3.0

More structures.
Compound	DUX4 txn inh	DUX4 txn inh difference	DUX4 txn inh control
CO[C@@H]1CN(C)C(=O)c2cc(NC(=O)c3ccc4c(c3)OCO4)ccc2OC[C@H](C)N(CC2CC2)C[C@H]1C	?	/	/
C[C@@H]1CN([C@@H](C)CO)C(=O)c2c(c3ccccc3n2C)-c2ccccc2CO[C@H]1CN(C)C(=O)CCC(F)(F)F	1	11	-10
COc1cccc(C(=O)Nc2ccc3c(c2)C(=O)N(C)[C@H]2CC[C@H](CC(=O)NCCCN4CCOCC4)O[C@H]2CO3)c1	-2	-1	-1.0
O=C(C[C@H]1CC[C@H]2[C@@H](COC[C@@H](O)CN2Cc2cccc(Cl)c2)O1)N1CCCCC1	-1	0	-1.0
CN(C)C(=O)C[C@@H]1CC[C@H]2[C@@H](COC[C@@H](O)CN2CC2CCCCC2)O1	9	1	8.3
CO[C@H](C(=O)N(C)C[C@H]1OCc2ccccc2-c2ccccc2C(=O)N([C@@H](C)CO)C[C@@H]1C)c1ccccc1	-6	-9	2.8
COc1ccc(S(=O)(=O)N2CC[C@H]3[C@H](CO)Nc4ccc(C#Cc5cccnc5)cc4[C@H]32)cc1	?	/	/
COc1ccc(NC(=O)N[C@H]2CC[C@@H](CCNC(=O)c3ccccc3F)O[C@@H]2CO)cc1	1	3	-1.9
CO[C@H]1CN(C)C(=O)c2ccc(NC(=O)c3cccc(F)c3)cc2OC[C@H](C)N(CC2CC2)C[C@@H]1C	?	/	/
CN1C(=O)c2cc(NC(=O)c3cccc(F)c3)ccc2OC[C@@H]2O[C@H](CC(=O)NCC3CCCCC3)CC[C@@H]21	-2&-2&2	2&-1&2	-3.6&-0.7&0.0
COc1ccc(C(=O)N2C[C@H]3[C@@H](c4ccccc42)[C@@H](CO)N3Cc2ccccc2Cl)cc1	3	1	1.9
COc1cccc(-c2ccc([C@@H]3[C@@H](CO)N(C(=O)c4ccccn4)[C@H]3C#N)cc2)c1	6	8	-1.9
Cc1cccc(S(=O)(=O)N2C[C@@H](O)COC[C@H]3O[C@@H](CC(=O)Nc4ccccc4)CC[C@@H]32)c1	-8	-3	-4.2
C[C@H]1CN([C@@H](C)CO)C(=O)CCCn2cc(nn2)CO[C@H]1CN(C)Cc1ccc(C(F)(F)F)cc1	-2	-1	-1.0
O=C(C[C@@H]1C=C[C@H](NC(=O)c2cccnc2)[C@H](CO)O1)NCCN1CCCCC1	5	5	-0.2
COc1ccc2c3c(n(C)c2c1)[C@H](CO)N(C(=O)CC1CC1)CC31CCN(Cc2ccncc2)CC1	20	22	-1.5
CN1C[C@@H](O)COC[C@H]2O[C@@H](CC(=O)N3CCN(c4ccccc4)CC3)CC[C@@H]21	5	4	0.6
CN(C[C@H]1[C@H](c2ccccc2)[C@H](CO)N1Cc1ccccn1)S(C)(=O)=O	-2	0	-2.3
COc1cccc(C#Cc2ccc([C@@H]3[C@H](CO)N4C(=O)CN(C(=O)Cc5ccccc5)C[C@@H]34)cc2)c1	-9	0	-9.2
OC[C@H]1Nc2ccc(C#Cc3ccc(F)cc3)cc2[C@@H]2[C@H]1CCN2Cc1nccs1	0	4	-4.0

Given as labelled records: entries from further up.
Compound: COc1ccc(NC(=O)N[C@H]2CC[C@@H](CCNC(=O)c3ccccc3F)O[C@@H]2CO)cc1
  DUX4 txn inh: 1 | DUX4 txn inh difference: 3 | DUX4 txn inh control: -1.9

Compound: C[C@H]1CN([C@@H](C)CO)C(=O)CCCn2cc(nn2)CO[C@H]1CN(C)Cc1ccc(C(F)(F)F)cc1
  DUX4 txn inh: -2 | DUX4 txn inh difference: -1 | DUX4 txn inh control: -1.0

Compound: CN1C(=O)c2cc(NC(=O)c3cccc(F)c3)ccc2OC[C@@H]2O[C@H](CC(=O)NCC3CCCCC3)CC[C@@H]21
  DUX4 txn inh: -2&-2&2 | DUX4 txn inh difference: 2&-1&2 | DUX4 txn inh control: -3.6&-0.7&0.0

New compounds follow.
Compound	DUX4 txn inh	DUX4 txn inh difference	DUX4 txn inh control
CO[C@H]1CN(C)C(=O)c2cc(NS(=O)(=O)CC(F)(F)F)ccc2OC[C@H](C)N(C)C[C@H]1C	4	13	-8.8
C[C@@H]1CCCCO[C@H](CN(C)S(=O)(=O)c2cn(C)cn2)[C@H](C)CN([C@@H](C)CO)C(=O)c2cc(NC(=O)Nc3cccc4ccccc34)ccc2O1	1	-1	1.4
CCN1CC(=O)N2[C@H](CO)[C@H](c3ccc(Br)cc3)[C@@H]2C1	11	0	11
O=C(Cc1ccccc1)N1CC[C@@H]2[C@H](CO)Nc3ccc(-c4ccccc4)cc3[C@@H]21	?	/	/
O=C(C1CCCC1)N1CC2(C1)[C@H](c1ccccc1)[C@H](CO)N2CC1CC1	3	4	-0.9
O=C(Cc1ccccc1)N1CC(=O)N2[C@H](CO)[C@@H](c3ccc(Br)cc3)[C@H]2C1	14	3	11
CC(=O)N(C)C[C@H]1Oc2cc(-c3ccc(C)cc3)ccc2S(=O)(=O)N([C@H](C)CO)C[C@H]1C	-1	-3	1.3
CC(C)[C@H]1C(=O)NCCC=CC[C@H](C)Oc2ccccc2C(=O)N1C (mixture of isomers)	6	4	1.4
CNC[C@@H]1Oc2ccc(NC(=O)c3ccncc3)cc2CC(=O)N([C@H](C)CO)C[C@@H]1C	4	3	1.1
COCC(=O)N1[C@H](C#N)[C@H](c2ccccc2C2=CCCC2)[C@@H]1CO	27	12	15
C[C@@H]1CN([C@@H](C)CO)C(=O)c2c(c3ccccc3n2C)-c2ccccc2CO[C@@H]1CN(C)S(=O)(=O)c1ccccc1F	-4	10	-14
CC(=O)N(C)C[C@H]1OCc2ccccc2-c2c(n(C)c3ccccc23)C(=O)N([C@H](C)CO)C[C@H]1C	9	6	3.1
C[C@@H](NC(=O)C[C@@H]1C=C[C@H](NS(=O)(=O)c2cccc(F)c2)[C@@H](CO)O1)c1ccccc1	2	0	1.5
CCC(=O)N1[C@H](CO)[C@H](c2ccccc2)C12CN(C(=O)CN1CCOCC1)C2	2	3	-0.9
CN1CCN(C(=O)C[C@@H]2CC[C@H]3[C@H](COc4ccc(NC(=O)C5CCOCC5)cc4C(=O)N3C)O2)CC1	-4	-4	-0.7
CCC(=O)N(C)C[C@@H]1Oc2cc(C#Cc3ccncc3)ccc2S(=O)(=O)N([C@H](C)CO)C[C@@H]1C	3	1	1.9
N#C[C@H]1[C@@H](c2ccccc2)[C@H](CO)N1S(=O)(=O)c1cccc(F)c1	3	-3	6.8
CC(C)C#Cc1ccc([C@@H]2[C@@H](C#N)N(C(=O)c3ccccn3)[C@H]2CO)cc1	3	4	-1.1
O=C(C[C@@H]1CC[C@@H]2[C@H](COC[C@@H](O)CN2Cc2ccc(Oc3ccccc3)cc2)O1)N1CCN(c2ccccc2)CC1	?	/	/
CO[C@H]1CN(C)C(=O)c2ccc(NC(=O)C3CCCC3)cc2OC[C@H](C)N(CCC(F)(F)F)C[C@@H]1C	1	-3	4.1

Going on with the list:
Compound	DUX4 txn inh	DUX4 txn inh difference	DUX4 txn inh control
COc1cccc(-c2ccc3c(c2)O[C@@H](CN(C)C(=O)c2ccccc2F)[C@@H](C)CN([C@H](C)CO)S3(=O)=O)c1	2	0	1.5
CNC(=O)C[C@@H]1CC[C@@H]2[C@@H](COc3ccc(NC(=O)Nc4ccc(Cl)cc4)cc3C(=O)N2C)O1	3	1	2.1
OC[C@@H]1[C@H](c2ccc(-c3cccc(F)c3)cc2)[C@@H]2CN(CCC(F)(F)F)CCCCN12	-6	-10	4.2
O=C(C[C@H]1C=C[C@H](NC(=O)c2ccc3c(c2)OCO3)[C@H](CO)O1)NCc1ccc(F)cc1	4	8	-4.6
CCC(=O)N1[C@@H](CO)[C@H](c2ccccc2)C12CN(C(=O)NC1CCCC1)C2	7	7	-0.4
CS(=O)(=O)N1[C@H](C#N)[C@H](c2ccccc2-c2ccc(F)cc2)[C@H]1CO	4	-4	7.7
CC=Cc1ccc2n(c1=O)C[C@H]1[C@H](CO)[C@@H](C(=O)NCCC)N(Cc3cocn3)[C@@H]21 (mixture of isomers)	2	-1	3.7
COc1ccc2c3c([nH]c2c1)[C@H](CO)N(Cc1ccncc1)CC31CN(C(=O)CN(C)C)C1	16	9	6.5
COc1ccccc1C(=O)N1C[C@H]2[C@@H](c3ccccc31)[C@@H](CO)N2Cc1ccc(F)cc1	-2	-1	-0.7
COCC(=O)Nc1ccc2c(c1)OC[C@H](C)N(C)C[C@@H](C)[C@@H](OC)CN(C)C2=O	8	7	0.9
COc1ccccc1C#Cc1ccc([C@H]2[C@@H](CO)N3CCCCN(C(=O)C4CCC4)C[C@@H]23)cc1	?	/	/
CCC(=O)NC[C@@H]1[C@@H](c2ccc(-c3ccccc3)cc2)[C@@H](CO)N1C(=O)C1CC1	0	-2	2.5
Cc1ccccc1S(=O)(=O)N1CC(=O)N2[C@H](CO)[C@@H](c3ccc(C#CC4CC4)cc3)[C@H]2C1	1	2	-1.5
O=C(NCC(F)(F)F)[C@@H]1[C@@H](CO)[C@@H]2Cn3c(cccc3=O)[C@H]1N2C(=O)C1CCCC1	-2	-8	5.8
O=C(C[C@H]1C[C@H]2c3cc(NC(=O)Cc4ccncc4)ccc3O[C@H]2[C@H](CO)O1)NCc1cccnc1	3	2	0.3
COc1ccccc1-c1ccc2c(c1)[C@@H]1[C@@H](CCN1S(=O)(=O)c1cccc(C)c1)[C@H](CO)N2	?	/	/
O=C(C[C@H]1CC[C@@H]2[C@H](COC[C@H](O)CN2C(=O)c2ccc(F)cc2)O1)NCc1cccc(F)c1	1	-2	2.5

Of the compounds above, these have bromine:
Compound	DUX4 txn inh	DUX4 txn inh difference	DUX4 txn inh control
CCN1CC(=O)N2[C@H](CO)[C@H](c3ccc(Br)cc3)[C@@H]2C1	11	0	11
O=C(Cc1ccccc1)N1CC(=O)N2[C@H](CO)[C@@H](c3ccc(Br)cc3)[C@H]2C1	14	3	11
